# Screening data from PubChem.
# FGF22 binding: binders of recombinant human FGF22 by thermal shift. calls only at 9.99 µM. AID 651658. 1.5% of 340,000 active. Q9HCT0. SYPRO orange fluorescence; percent of sucrose octasulfate shift, DMSO zero;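 active = melting point raised past a set limit in the mean and every replicate; three in four hits are not shown here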
# Target sequence (Q9HCT0 whole entry, looked up): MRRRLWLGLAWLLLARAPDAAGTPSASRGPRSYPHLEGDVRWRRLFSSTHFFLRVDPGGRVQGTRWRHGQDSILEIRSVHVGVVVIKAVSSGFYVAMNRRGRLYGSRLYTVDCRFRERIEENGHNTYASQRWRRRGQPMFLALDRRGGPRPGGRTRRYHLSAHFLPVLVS
# Calls only; i = inactive. Only part of the results is shown. The share of hits here may be higher or lower than overall.
nr | compound | FGF22 binding
1 | Cc1noc(C)c1S(=O)(=O)Nc1cccc2c1O[C@H](CN(C)Cc1ccc(Cl)c(Cl)c1)[C@H](C)CN([C@@H](C)CO)C2=O | i
2 | COc1ccccc1-c1ccc2c(c1)O[C@H](CN(C)C(=O)c1ccncc1)[C@@H](C)CN([C@H](C)CO)S2(=O)=O | i
3 | C#Cc1ccc([C@@H]2C=C(C(=O)Nc3ccccc3)O[C@H](OCc3ccc(CO)cc3)C2)cc1 | i
4 | C[C@@H]1CN([C@@H](C)CO)C(=O)c2cccc(NC(=O)c3ccc(-c4nccs4)cc3)c2O[C@H]1CN(C)CC1CC1 | i
5 | Cc1noc(C)c1NC(=O)Nc1cccc2c1O[C@H](CN(C)C(=O)Nc1c(C)noc1C)[C@H](C)CN([C@@H](C)CO)C2=O | i
6 | Cn1cnc(S(=O)(=O)N[C@@H]2CC[C@H](CC(=O)N3CCN(c4ccccc4)CC3)O[C@@H]2CO)c1 | i
7 | COc1ccc(NC(=O)N2C[C@H](O)COC[C@@H]3O[C@@H](CC(=O)N4CCCCC4)CC[C@H]32)cc1 | i
8 | C[C@@H]1CN([C@@H](C)CO)C(=O)Cc2cc(NC(=O)Nc3ccc(C(F)(F)F)cc3)ccc2O[C@@H]1CN(C)C(=O)Nc1ccc2c(c1)OCO2 | i
9 | N#Cc1cccc(-c2ccc([C@H]3[C@H]4CN(Cc5ccccc5F)CCCCN4[C@H]3CO)cc2)c1 | i
10 | C[C@H](CO)N1C[C@H](C)[C@H](CN(C)S(=O)(=O)c2cccs2)Oc2ccc(NS(=O)(=O)c3ccccc3)cc2C1=O | i
11 | COc1cccc(NC(=O)C[C@H]2CC[C@@H]3[C@@H](COc4ccc(NC(=O)c5ccccc5F)cc4C(=O)N3C)O2)c1 | i
12 | CCC(=O)N(C)C[C@@H]1Oc2ncc(-c3ccc(C#N)cc3)cc2C(=O)N([C@H](C)CO)C[C@H]1C | i
13 | C[C@@H]1CCCCO[C@H](CN(C)Cc2ccncc2)[C@H](C)CN([C@@H](C)CO)C(=O)c2cc(NC(=O)c3ccccc3)ccc2O1 | i
14 | COCC(=O)N1C[C@H]2[C@@H](c3ccccc31)[C@@H](CO)N2C(=O)C1CC1 | i
15 | COc1ccccc1NC(=O)N1C[C@@H](O)COC[C@H]2O[C@@H](CC(=O)NCCc3ccccc3)CC[C@@H]21 | i
16 | COc1ccc(CN(C)C[C@@H]2Oc3ccc(NC(=O)Nc4ccc(OC)cc4)cc3CC(=O)N([C@@H](C)CO)C[C@@H]2C)cc1 | i
17 | COCC(=O)N1C[C@H](C)[C@H](OC)CN(C)C(=O)c2cc(NC(=O)C3CCC3)ccc2OC[C@@H]1C | i
18 | C[C@@H]1CN([C@@H](C)CO)C(=O)c2cc(NC(=O)C3CCCCC3)ccc2O[C@@H]1CN(C)CC1CC1 | i
19 | C[C@@H]1CN([C@H](C)CO)S(=O)(=O)c2ccc(-c3cccc(F)c3)cc2O[C@@H]1CN(C)C(=O)C1CC1 | i
20 | COc1ccc(C(=O)N2C[C@@H]3[C@H](c4ccccc42)[C@H](CO)N3C(=O)c2cccc(F)c2)cc1 | i

# Additional structures follow.
nr | compound | FGF22 binding
21 | CC(C)CC#Cc1cnc2c(c1)C(=O)N([C@@H](C)CO)C[C@@H](C)[C@@H](CN(C)C(=O)C1CCOCC1)O2 | i
22 | C[C@@H]1CN([C@@H](C)CO)C(=O)Cc2cc(NC(=O)C3CCCCC3)ccc2O[C@@H]1CN(C)Cc1ccccc1 | i
23 | Cc1noc(C)c1NC(=O)N(C)C[C@H]1Oc2ccc(NC(=O)Cc3cn(C)c4ccccc34)cc2C(=O)N([C@@H](C)CO)C[C@@H]1C | i
24 | Cc1ccccc1-c1cnc2c(c1)C(=O)N([C@H](C)CO)C[C@@H](C)[C@H](CN(C)C(=O)c1ccc(F)cc1)O2 | i
25 | O=C(NCC[C@@H]1CC[C@H](NC(=O)C2CC2)[C@@H](CO)O1)c1cnccn1 | i
26 | Nc1[nH]c(C(=O)c2ccccc2)c(-c2ccccc2Cl)c1C(=O)NCCc1c[nH]c2ccccc12 | i
27 | CCOC(=O)C1=C[C@@H](C(C)(C)C)N(S(=O)(=O)c2ccc([N+](=O)[O-])cc2)[C@H]1c1cccc(Cl)c1 | i
28 | CO[C@H]1CN(C)C(=O)c2ccc(NC(=O)c3cc(C)on3)cc2OC[C@H](C)N(CC2CC2)C[C@@H]1C | i
29 | CCC(=O)N1[C@H](CO)[C@H](c2ccccc2)[C@H]1CNC(=O)CN1CCOCC1 | i
30 | O=S(=O)(c1ccccc1)N1CC2(C1)[C@H](c1ccccc1)[C@H](CO)N2CC1CCCC1 | i
31 | COc1cccc(CNC(=O)C[C@@H]2CC[C@H]3[C@H](COc4ccc(NC(=O)c5cccs5)cc4C(=O)N3C)O2)c1 | i
32 | C[C@@H]1CN([C@H](C)CO)C(=O)c2cc(C#CCN(C)C)cnc2O[C@@H]1CN(C)C(=O)CN1CCOCC1 | i
33 | C[C@H](CO)N1C[C@H](C)[C@@H](CN(C)C(=O)Nc2ccc(C(F)(F)F)cc2)OCCCC[C@H](C)Oc2ccc(NS(=O)(=O)c3ccc(F)cc3)cc2C1=O | i
34 | COc1ccc(C(=O)Nc2ccc3c(c2)C(=O)N(C)[C@H]2CC[C@H](CC(=O)NCC4CC4)O[C@H]2CO3)cc1 | i
35 | C[C@@H]1CN([C@H](C)CO)C(=O)Cc2cc(NC(=O)Cc3cn(C)c4ccccc34)ccc2O[C@H]1CN(C)Cc1ccc(C(=O)O)cc1 | i
36 | C[C@@H]1CN([C@H](C)CO)C(=O)c2cc(NC(=O)Cc3ccccc3)ccc2O[C@@H]1CN(C)Cc1ccc(C(=O)Nc2ccccc2N)cc1 | i
37 | C[C@H](NC(=O)C[C@H]1CC[C@@H]2[C@H](COC[C@H](O)CN2C(=O)Nc2cccc(F)c2)O1)c1ccccc1 | i
38 | O=C(C[C@H]1CC[C@H]2[C@@H](COC[C@H](O)CN2C(=O)Nc2cccc(F)c2)O1)NCc1ccccc1Cl | i
39 | CO[C@H]1CN(C)C(=O)c2cc(NS(=O)(=O)c3c(C)noc3C)ccc2OC[C@H](C)NC[C@@H]1C | i
40 | COc1cc2c(cc1OC)CN(C(=O)[C@@H]1[C@H]3C(=O)O[C@H](c4ccccc4)[C@H](c4ccccc4)N3[C@H](c3ccc(OCCO)cc3)[C@@]13C(=O)Nc1ccc(C#CCNC(N)=O)cc13)CC2 | i

# In a second layout: entries from further up.
37) C[C@H](NC(=O)C[C@H]1CC[C@@H]2[C@H](COC[C@H](O)CN2C(=O)Nc2cccc(F)c2)O1)c1ccccc1
- FGF22 binding: i

38) O=C(C[C@H]1CC[C@H]2[C@@H](COC[C@H](O)CN2C(=O)Nc2cccc(F)c2)O1)NCc1ccccc1Cl
- FGF22 binding: i

39) CO[C@H]1CN(C)C(=O)c2cc(NS(=O)(=O)c3c(C)noc3C)ccc2OC[C@H](C)NC[C@@H]1C
- FGF22 binding: i

40) COc1cc2c(cc1OC)CN(C(=O)[C@@H]1[C@H]3C(=O)O[C@H](c4ccccc4)[C@H](c4ccccc4)N3[C@H](c3ccc(OCCO)cc3)[C@@]13C(=O)Nc1ccc(C#CCNC(N)=O)cc13)CC2
- FGF22 binding: i

# (more compounds)
nr | compound | FGF22 binding
41 | CCC(=O)N(C)C[C@@H]1Oc2cc(C#CCOC)ccc2S(=O)(=O)N([C@H](C)CO)C[C@@H]1C | i
42 | Cc1noc(C)c1NC(=O)NCC[C@@H]1CC[C@@H](NC(=O)c2ccncc2)[C@H](CO)O1 | i
43 | C[C@H]1CN([C@@H](C)CO)C(=O)c2cccc(NC(=O)c3nc4ccccc4s3)c2O[C@@H]1CN(C)Cc1ccc2c(c1)OCO2 | i
44 | C[C@H](CO)N1C[C@H](C)[C@H](CN(C)C(=O)Cc2cccnc2)Oc2cc(C#Cc3ccccc3F)ccc2S1(=O)=O | i
45 | C[C@@H]1CN([C@H](C)CO)C(=O)c2ccccc2-c2ccccc2CO[C@@H]1CN(C)C(=O)CCN(C)C | i
46 | C[C@@H]1CCCCO[C@H](CN(C)C(=O)c2ccccc2)[C@@H](C)CN([C@H](C)CO)C(=O)c2cc(NS(=O)(=O)c3cccs3)ccc2O1 | i
47 | COc1ccc(-c2ccc3c(c2)[C@@H]2[C@@H](CCN2C(=O)Cc2ccccc2)[C@H](CO)N3C)cc1 | i
48 | CCC(=O)Nc1ccc2c(c1)C(=O)N(C)[C@H]1CC[C@H](CC(=O)N[C@@H](C)c3ccccc3)O[C@@H]1CO2 | i
49 | Cc1noc(C)c1S(=O)(=O)N(C)C[C@@H]1Oc2ccc(NC(=O)Nc3cccc4ccccc34)cc2CC(=O)N([C@H](C)CO)C[C@@H]1C | i
50 | O=C(C[C@@H]1C[C@H]2c3cc(NC(=O)Cc4ccncc4)ccc3O[C@H]2[C@H](CO)O1)NCCN1CCCCC1 | i
51 | CN(C(=O)[C@@H](Cc1ccccc1)NC(=O)[C@H]1O[C@@H](n2cnc3c(=O)[nH]c(N)nc32)[C@H](O)[C@@H]1O)C1CCCCC1 | i
52 | COCC(=O)N1[C@@H](CO)[C@H](c2ccc(-c3ccccc3OC)cc2)C12CN(C(C)=O)C2 | i
53 | C[C@H]1CN([C@@H](C)CO)C(=O)c2c(c3ccccc3n2C)-c2ccccc2CO[C@H]1CN(C)C(=O)NC1CCCCC1 | i
54 | Nc1[nH]c(=O)ncc1-c1ccc([N+](=O)[O-])cc1 | i
55 | COc1ccc(S(=O)(=O)Nc2ccc3c(c2)CC(=O)N([C@H](C)CO)C[C@H](C)[C@@H](CN(C)Cc2ccc(Cl)c(Cl)c2)O3)cc1 | i
56 | CCCN(C)C[C@H]1Oc2ncc(C#CCN(C)C)cc2C(=O)N([C@@H](C)CO)C[C@@H]1C | i
57 | COc1ccccc1-c1cnc2c(c1)C(=O)N([C@H](C)CO)C[C@H](C)[C@@H](CN(C)CC1CCCC1)O2 | i
58 | O=C(NC1CCCCC1)N1CC(=O)N2[C@@H](CO)[C@H](c3ccc(-c4cccc(F)c4)cc3)[C@@H]2C1 | i
59 | CC(C)NC(=O)Nc1ccc2c(c1)CC(=O)N([C@H](C)CO)C[C@H](C)[C@@H](CN(C)Cc1ccncc1)O2 | i
60 | CCC(=O)N1C[C@@H](C)[C@@H](OC)CN(C)C(=O)c2cc(NS(C)(=O)=O)ccc2OC[C@H]1C | i

# The list goes on.
nr | compound | FGF22 binding
61 | C/C=C/c1cnc2c(c1)C(=O)N([C@H](C)CO)C[C@@H](C)[C@H](CN(C)C(=O)Cc1cccnc1)O2 | i
62 | C[C@@H]1CN([C@H](C)CO)C(=O)Cc2cc(NC(=O)Nc3cccc4ccccc34)ccc2O[C@H]1CN(C)Cc1ccc2c(c1)OCO2 | i
63 | C[C@@H]1CN([C@@H](C)CO)C(=O)c2c(c3ccccc3n2C)-c2ccccc2CO[C@@H]1CN(C)Cc1ccc(Oc2ccccc2)cc1 | i
64 | C[C@H](CO)N1C[C@H](C)[C@@H](CN(C)Cc2ccc(C(=O)O)cc2)Oc2ncc(C3=CCCC3)cc2C1=O | i
65 | C[C@@H]1CN([C@H](C)CO)C(=O)c2cc(NS(C)(=O)=O)ccc2O[C@@H](C)CCCCO[C@H]1CN(C)C(=O)Nc1ccc2c(c1)OCO2 | i
66 | C[C@H]1CN([C@@H](C)CO)C(=O)c2ccccc2-c2ccccc2CO[C@@H]1CN(C)S(=O)(=O)c1cn(C)cn1 | i
67 | C[C@@H]1CCCCO[C@@H](CN(C)C(=O)c2ccccc2)[C@H](C)CN([C@@H](C)CO)C(=O)c2cc(NC(=O)NC3CCCCC3)ccc2O1 | i
68 | C[C@@H](O)C#Cc1cnc2c(c1)C(=O)N([C@@H](C)CO)C[C@H](C)[C@H](CN(C)C(=O)c1ccc(F)cc1)O2 | i
69 | CO[C@@H]1CN(C)C(=O)c2ccc(NC(=O)c3ccccc3)cc2OC[C@H](C)NC[C@H]1C | i
70 | CN(C)C(=O)C[C@H]1CC[C@@H]2[C@@H](COc3ccc(NC(=O)C4CCOCC4)cc3C(=O)N2C)O1 | i
71 | CCCNC(=O)Nc1ccc2c(c1)OC[C@@H](C)N(CCC)C[C@H](C)[C@H](OC)CN(C)C2=O | i
72 | COCC#Cc1cnc2c(c1)C(=O)N([C@@H](C)CO)C[C@@H](C)[C@@H](CN(C)C(=O)Cc1ccccc1)O2 | i
73 | N#C[C@H]1[C@@H](c2ccc(C3=CCCCC3)cc2)[C@@H](CO)N1C(=O)c1ccccn1 | i
74 | CCC(=O)NC[C@@H]1[C@H](c2ccc(C3=CCCC3)cc2)[C@H](CO)N1C(C)=O | i
75 | COC(=O)[C@]12C[C@H](CC(=O)NCc3ccc(OC)c(OC)c3)C(=O)N(Cc3ccccc3)C1=C[C@H](C(C)C)O[C@@H]2C1CC1 | i
76 | CO[C@@H]1CN(C)C(=O)c2ccc(NS(C)(=O)=O)cc2OC[C@@H](C)N(C(=O)CC2CC2)C[C@H]1C | i
77 | CS(=O)(=O)N1CC2(C1)[C@@H](c1ccccc1)[C@@H](CO)N2C(=O)c1ccccc1 | i
78 | C[C@H]1CN([C@@H](C)CO)C(=O)c2cccc(NS(=O)(=O)c3ccc(F)cc3)c2O[C@@H]1CN(C)C(=O)Nc1ccc(F)cc1 | i
79 | C[C@@H]1CN([C@@H](C)CO)C(=O)c2cccc(NC(=O)c3ccncc3)c2O[C@@H]1CN(C)C(=O)Nc1ccc2c(c1)OCO2 | i
80 | Cc1ccccc1-c1ccc([C@@H]2[C@@H](CO)N3CCCCN(S(=O)(=O)Cc4ccccc4)C[C@H]23)cc1 | i
81 | CO[C@H]1CN(C)C(=O)c2ccc(NC(=O)c3ccc(F)cc3)cc2OC[C@H](C)NC[C@H]1C | i
82 | C[C@@H]1CN([C@H](C)CO)C(=O)Cc2cc(NS(=O)(=O)c3ccccc3)ccc2O[C@H]1CN(C)C(=O)Nc1ccc(F)cc1 | i
83 | O=C(N[C@@H]1CC[C@H](CCNS(=O)(=O)c2ccccc2Cl)O[C@H]1CO)c1ccccc1 | i

# Of the compounds above, these contain a CF3 group.
nr | compound | FGF22 binding
8 | C[C@@H]1CN([C@@H](C)CO)C(=O)Cc2cc(NC(=O)Nc3ccc(C(F)(F)F)cc3)ccc2O[C@@H]1CN(C)C(=O)Nc1ccc2c(c1)OCO2 | i
33 | C[C@H](CO)N1C[C@H](C)[C@@H](CN(C)C(=O)Nc2ccc(C(F)(F)F)cc2)OCCCC[C@H](C)Oc2ccc(NS(=O)(=O)c3ccc(F)cc3)cc2C1=O | i
